Screens from PubChem BioAssay.
Arbovirus anti: antivirals against arbovirus infection | arbovirus infection cell-based antiviral screen | inhibition, % at 10 µM | actives 0.37% (n = 200,000);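 active = inhibition from about 30%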;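 also: bluetongue infection of BSR cells; cell survival read as ATP light after 72 h; 0% = infected wells without compound and 100% = uninfected wells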
Mtb bLac sens: beta-lactam sensitization of Mtb H37Rv. M. tuberculosis H37Rv growth with meropenem, percent inhibition; hits of this screen are not shown here. actives 0.27% (n = 330,000). inhibition, % at 25 µM;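 active = about 74% or more and at least 40 points above the plate without the antibiotic, then above 30% in a dose series; inconclusive = first-round hits that could not be retested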;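 also: growth measured after seven days incubation then overnight dye step; 0% = bacteria only wells and 100% = bacteria with antibiotic; twin plates without the antibiotic show which effects depend on it; some results filed as inactive read as strong as hits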
YopH PTP inh: inhibitors of Yersinia enterocolitica YopH tyrosine phosphatase | fluorescence Ex485/Em525 | inhibition, %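 (about 10 µM by stock and volumes)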 | actives 0.16% (n = 140,000) | AID 898;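 active = inhibition of 50% or more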;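 also: controls were vehicle for no effect and minimum signal wells for full effect; inactives centre near -20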
Mtb H37Rv: M. tuberculosis H37Rv growth inhibitors, H37Rv strain (AID 1626); M. tuberculosis H37Rv growth inhibition; higher % means a stronger effect; inhibition, % at 10 µM; hits with a dose series show IC50 in µM; actives 0.95% (n = 220,000);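 active = confirmed in a dose series; inconclusive = inhibition above 80% but not taken into the dose series; inactive = below 80% or under 30% at every dose of the series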;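 also: bacteria incubated seven days before Alamar blue readout; 0% = bacteria only wells and 100% = bacteria with antibiotic wells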
RecA splice inh: inhibitors of M. tuberculosis RecA intein splicing; actives 0.75% (n = 290,000); inhibition, %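 (about 9 µM by stock and volumes)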; cell-free RecA intein splicing, fluorescence; P9WHJ3; in the data active = inhibition above about 30%; inconclusive = no clear call, values can overlap the other calls;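 also: 0% = vehicle wells and 100% = reference inhibitor control wells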
Target sequence (P9WHJ3 whole entry, looked up, canonical isoform): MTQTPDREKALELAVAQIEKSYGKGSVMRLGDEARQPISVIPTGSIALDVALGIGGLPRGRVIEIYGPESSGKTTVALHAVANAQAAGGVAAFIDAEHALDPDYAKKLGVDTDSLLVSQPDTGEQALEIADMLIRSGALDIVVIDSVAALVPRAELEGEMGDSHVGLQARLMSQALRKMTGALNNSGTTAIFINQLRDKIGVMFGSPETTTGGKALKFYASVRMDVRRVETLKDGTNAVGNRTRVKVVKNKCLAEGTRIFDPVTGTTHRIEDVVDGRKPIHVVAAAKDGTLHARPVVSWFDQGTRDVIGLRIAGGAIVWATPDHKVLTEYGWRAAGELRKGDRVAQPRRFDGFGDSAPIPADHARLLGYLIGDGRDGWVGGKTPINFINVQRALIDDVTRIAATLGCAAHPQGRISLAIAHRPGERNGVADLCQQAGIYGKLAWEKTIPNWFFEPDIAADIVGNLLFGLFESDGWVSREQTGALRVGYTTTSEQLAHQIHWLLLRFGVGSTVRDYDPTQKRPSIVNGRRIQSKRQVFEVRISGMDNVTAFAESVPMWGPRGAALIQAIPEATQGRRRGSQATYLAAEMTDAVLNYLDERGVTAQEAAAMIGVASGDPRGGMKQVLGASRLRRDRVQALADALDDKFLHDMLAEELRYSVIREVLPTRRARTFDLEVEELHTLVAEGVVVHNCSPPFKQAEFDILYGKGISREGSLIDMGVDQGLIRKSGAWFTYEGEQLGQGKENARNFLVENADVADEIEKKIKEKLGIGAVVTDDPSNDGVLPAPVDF
Arbovirus anti repeat: second read-out of Arbovirus anti, no call of its own (marks repeat the call); inhibition, %; measured here: 10K subset replicate screen; many hits read low in the repeat;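 first of two repeat runs on a subset; 0% = infected and 100% = uninfected wells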
An asterisk follows results filed as active; ? = inconclusive; · = no result given.

SMILES | Arbovirus anti | Mtb bLac sens | YopH PTP inh | Mtb H37Rv | RecA splice inh | others
CC(=O)c1ccc(OCC(C)C)c(Cc2c(O)nc(N)[nH]c2=O)c1 | 9 | -2 | -25 | -1% | 3.1
O=C(NCc1cccs1)c1cccnc1C(=O)O | 1 | -9 | -44 | -2% | 0.9
CCCC[n+]1ccc(-c2nc3ccc([N+](=O)[O-])cc3[nH]2)cc1 | 0 | 6 | -29 | 11% | 3.7
CCOc1ccc(CCNC(=O)Cc2ccc(NC3=NC4CS(=O)(=O)CC4S3)cc2)cc1 (stereo unspecified) | · | 4 | · | · | -4.8
CSc1nc(N)nc(N(C)C)n1 | · | -3 | · | -11% | ·
O=C(N/N=C/c1ccc(O)cc1O)c1ccc(CN2C(=O)c3cccc4cccc2c34)cc1 | -23 | 4 | · | 16% | -12
CCC(=O)N1N=C(c2ccc(NS(C)(=O)=O)cc2)CC1c1ccc(N(C)C)cc1 (stereo unspecified) | -5 | 1 | · | -2% | -2.0
COc1ccc(S(=O)(=O)N2CCC(C(=O)N3CCCC3)CC2)cc1C | · | -4 | · | · | 1.9
COc1ccccc1N1CCN(c2cc(=O)n(-c3ccc(Cl)cc3)c(=O)[nH]2)CC1 | -5 | -2 | -12 | 7% | 3.1 | Arbovirus anti repeat=-2
COC(=O)NCCOC(=O)N(O)c1ccc(Br)cc1 | 1 | -4 | -49 | -2% | -6.0
O=C(COc1ccc2c(c1)OCO2)NC12CC3CC(CC(C3)C1)C2 | -2 | 96 | -1 | -8% | ·
Cc1ccc(/C=C/C(=O)N2CCN(c3ncccn3)CC2)o1 | -1 | -2 | -3 | -1% | -0.9
Cc1nc2ccc(NC(=O)N3CCCCC3)cc2s1 | -5 | 0 | 30 | 2% | -0.4
CCOc1cc(/C=N/n2cnnc2)c(Br)cc1O | 12 | 1 | -57 | 5% | 2.7
O=C(c1ccc(COc2ccc(F)cc2)o1)n1cc(Br)cn1 | -3 | 0 | -25 | -3% | 7.2
O=C(Nc1ccccc1)c1ccc2nc(-c3ccco3)c(-c3ccco3)nc2c1 | -18 | 23 | 12 | 0% | 19
COc1ccc(OCC(=O)Nc2ccc(OC)c(S(=O)(=O)N3CCCCC3)c2)cc1 | · | -12 | · | · | 1.8
CCOC(=O)c1cc(CC)sc1/N=C/c1c(O)[nH]c(=S)[nH]c1=O | -12 | -4 | -24 | -2% | -4.3
CC(C)NCc1cccc([N+](=O)[O-])c1 | 5 | 0 | -28 | 1% | 2.2
COC(=O)C1=C[C@@H](C(=O)OC)[C@@H]2C3=C(C(=O)C2(C)C)[C@H](C)n2c(=O)n(-c4ccccc4)c(=O)n2[C@@H]3C1 | · | -8 | · | -9% | -2.3
CN(C)S(=O)(=O)c1ccc(NC(=O)CSc2n[nH]c(=O)n2C2CC2)cc1 | 6 | 2 | · | -5% | -1.9
Cc1ccc(-c2nn(CCC#N)cc2C=C(C#N)C#N)cc1 | -1 | 0 | -39 | 10% | 0.3
CN1C(=O)C(C(=O)Nc2ccccc2F)c2ccccc21 (stereo unspecified) | 6 | -2 | -9 | -10% | -0.4
O=C(CN1C(=O)NC2(CCCC2)C1=O)N1CCN(c2ccccc2O)CC1 | · | -2 | · | · | -4.9
CCOC(=O)CSc1nc2ccccc2c(=O)n1-c1ccc(C(=O)NCCOC)cc1 | 2 | -8 | 21 | -2% | 5.4
O=C(OCC(O)CN1CCCCC1)C12CC3CC(CC(C3)C1)C2 (stereo unspecified) | 2 | -9 | 1 | 1% | -1.6
COc1ccc(N=Cc2c(O)n(-c3ccc(C)cc3)c(=O)[nH]c2=O)cc1 | -14 | -8 | · | ? | -193
CCOC(=O)C1CCCN(c2c(NCCCN(CC)c3cccc(C)c3)c(=O)c2=O)C1 (stereo unspecified) | 3 | -10 | -19 | 6% | -1.0
COc1ccc(C2C(C(C)=O)=C(O)C(=O)N2c2ccc(F)cc2)cc1 (stereo unspecified) | · | 4 | · | · | -1.0
COc1ccc(-c2nc(CS(=O)CC(=O)NCc3ccccn3)c(C)o2)cc1 (stereo unspecified) | 4 | -3 | -32 | · | -0.4 | Arbovirus anti repeat=0
O=C(OCC(=O)c1ccc(Cl)cc1Cl)c1cnccn1 | · | -1 | · | · | 0.4
CCCCN1C(=O)C(O)(CC(=O)c2ccccc2OC)c2ccccc21 (stereo unspecified) | -13 | 0 | -6 | -3% | 2.5 | Arbovirus anti repeat=-5
O=C(CCn1c(=S)oc2ccccc21)Nc1cccc(F)c1 | -7 | 0 | · | 1% | ·
CS(=O)(=O)N1CCN=C1SCc1ccc(Br)cc1 | · | 3 | · | · | -0.4
Cn1cccc1C(=O)NC(=O)COC(=O)CC12CC3CC(CC(C3)C1)C2 | -2 | -2 | -36 | -6% | 4.6
CCCNS(=O)(=O)c1ccc(OCC(=O)Nc2ccc3c(c2)OCCO3)c(C)c1 | · | 1 | · | · | 3.3
CCOc1ccc2nc(N3CCCC(C(=O)NC4CCCC4)C3)sc2c1 (stereo unspecified) | · | -4 | · | · | -3.8
CCn1ccnc1C(O)(c1ccccc1)c1ccccc1 | · | 2 | · | · | -3.1
O=CNc1ccc(OP(=O)(Oc2ccccc2)Oc2ccccc2)cc1 | · | 8 | · | · | 2.4
Cc1ccc(CNC(=O)C2CCC(=O)N(CCc3ccccn3)C2)s1 (stereo unspecified) | · | 0 | · | · | 0.8
Cc1ccc(OCCC(=O)N(CC(=O)Nc2ccccc2C(F)(F)F)Cc2ccco2)cc1 | · | -6 | · | · | -2.0
Cc1c(CN2CCC(CO)(CCOc3ccccc3)CC2)[nH]c2ccc(Cl)cc12 | -31 | 100 | · | 4.6µM* | 7.8
Cc1ccc(C(=O)N/C(=C/c2cn(-c3ccccc3)nc2-c2ccccc2)C(=O)O)cc1 | 4 | -6 | · | -8% | 7.6
O=C(CSc1nnnn1-c1ccccc1)CSc1nnnn1-c1ccccc1 | -2 | 8 | -62 | 1% | -2.5 | Arbovirus anti repeat=2
CCN(CC)c1nc(C(N)=O)cc(-c2ccccc2)n1 | -12 | 9 | -31 | 22% | 2.3
CCOc1ccc(/C(O)=C2/C(=O)C(=O)N(CCN(CC)CC)C2c2ccco2)cc1 (stereo unspecified) | 4 | -7 | -5 | 3% | -0.4
COC(=O)c1ccccc1S(=O)(=O)NNC(=O)c1ccccc1-n1cccc1 | · | -10 | · | · | -30
CCN(CC)CCC(=O)N1c2ccccc2CCc2ccc(NC(=O)OC(C)C)cc21 | · | 4 | · | · | 29
COC(=O)c1cc(S(=O)(=O)N(Cc2ccccc2)C(C)(C)C)c[nH]1 | · | 2 | · | · | -1.7
CC(=O)c1ccc(NC(=O)c2ccc(CNc3c(N4CCOCC4)c(=O)c3=O)cc2)cc1 | · | 99 | · | 5.8µM* | 1.0
Continuation:
SMILES | Arbovirus anti | Mtb bLac sens | YopH PTP inh | Mtb H37Rv | RecA splice inh | others
Cc1ccc(S(=O)(=O)N(C(=O)c2ccncc2)c2ccc(OC(=O)c3ccncc3)cc2)cc1 | -7 | 4 | -45 | 12% | 14
C=CCn1c(SCC(=O)Nc2ccc(OC)cc2)nnc1-c1cnccn1 | · | 5 | · | · | -0.2
COc1ccc(C(=O)Cn2c(NCCCl)nc3ccccc32)cc1 | · | 2 | · | · | 0.3
Cc1csc(NC(=O)C2CC(=O)N(c3ccc(C)c(C)c3)C2)n1 (stereo unspecified) | · | 82 | · | · | 1.6
C=CCN1C=CC(=C/C=C(/C#N)C(=O)OCC)C=C1 | -1 | -1 | -74 | 5% | -4.9
CCC(=O)Nc1cc(OC)cc(OC)c1 | -7 | -8 | · | 1% | -0.6
COc1ccc(Cl)cc1C(=O)NNC(=O)c1csc(N2CCOCC2)n1 | · | 2 | · | · | -1.7
CCC(C)c1ccc(NC(=S)NC2CCN(Cc3ccccc3)CC2)cc1 (stereo unspecified) | -34 | 65 | -11 | 14% | -0.2
COC(=O)c1ccc(C(=O)N2CCCC(Nc3ccc(F)c(F)c3)C2)cc1 (stereo unspecified) | · | ? | · | · | 2.1
O=C(N/N=C\c1ccccn1)c1cccc(C(=O)N/N=C\c2ccccn2)n1 | · | 1 | · | · | -0.7

Reprinted from above for reference:
SMILES | Arbovirus anti | Mtb bLac sens | YopH PTP inh | Mtb H37Rv | RecA splice inh | others
CC(=O)c1ccc(OCC(C)C)c(Cc2c(O)nc(N)[nH]c2=O)c1 | 9 | -2 | -25 | -1% | 3.1
O=C(NCc1cccs1)c1cccnc1C(=O)O | 1 | -9 | -44 | -2% | 0.9

Other records follow:
SMILES | Arbovirus anti | Mtb bLac sens | YopH PTP inh | Mtb H37Rv | RecA splice inh | others
CC(=O)Nc1ncc(Cc2cc(Cl)ccc2Cl)s1 | -31 | -1 | · | 4% | 4.1
NCCCn1c(C(=O)c2ccc(Cl)cc2)c2ccc(C(F)(F)F)cc2[n+]1[O-] | · | -6 | · | · | 1.5
CN1CCN(CC(O)(c2ccc(Cl)cc2)c2ccc(Cl)cc2)CC1 | -29 | -6 | · | 20% | -1.1
O=C(NCCc1ccccc1)/C(=C\c1ccc([N+](=O)[O-])cc1)NC(=O)c1ccc(Br)cc1 | 2 | ? | -11 | 7% | -0.5
O=C(Cn1c(C(F)(F)F)nc2ccccc21)Oc1cccc(C(F)(F)F)c1 | 9 | 16 | -35 | -5% | 23
COc1ccc(OCCCNCCc2ccccc2)cc1 | -2 | 8 | · | 7% | 1.5
Cc1ccccc1NC(=O)CN1C(=O)COc2ccc(Cl)cc21 | 1 | -1 | -47 | 0% | -0.6 | Arbovirus anti repeat=4
COCc1cc(Sc2cccc(Cl)c2Cl)nc(-c2ccccc2)n1 | 17 | -7 | -19 | 14% | -1.8
O=C(CCSCCc1ccccn1)Nc1ccc(Br)cc1F | -2 | 10 | -18 | -8% | -1.0
O=C(CCNC(=O)N1CCn2c1nc1ccccc12)NCc1ccccc1 | · | -1 | · | · | -1.3

Filtered by structure: the entries above with an aryl methoxy group.
SMILES | Arbovirus anti | Mtb bLac sens | YopH PTP inh | Mtb H37Rv | RecA splice inh | others
COc1ccc(S(=O)(=O)N2CCC(C(=O)N3CCCC3)CC2)cc1C | · | -4 | · | · | 1.9
COc1ccccc1N1CCN(c2cc(=O)n(-c3ccc(Cl)cc3)c(=O)[nH]2)CC1 | -5 | -2 | -12 | 7% | 3.1 | Arbovirus anti repeat=-2
COc1ccc(OCC(=O)Nc2ccc(OC)c(S(=O)(=O)N3CCCCC3)c2)cc1 | · | -12 | · | · | 1.8
COc1ccc(N=Cc2c(O)n(-c3ccc(C)cc3)c(=O)[nH]c2=O)cc1 | -14 | -8 | · | ? | -193
COc1ccc(C2C(C(C)=O)=C(O)C(=O)N2c2ccc(F)cc2)cc1 (stereo unspecified) | · | 4 | · | · | -1.0
COc1ccc(-c2nc(CS(=O)CC(=O)NCc3ccccn3)c(C)o2)cc1 (stereo unspecified) | 4 | -3 | -32 | · | -0.4 | Arbovirus anti repeat=0
CCCCN1C(=O)C(O)(CC(=O)c2ccccc2OC)c2ccccc21 (stereo unspecified) | -13 | 0 | -6 | -3% | 2.5 | Arbovirus anti repeat=-5
C=CCn1c(SCC(=O)Nc2ccc(OC)cc2)nnc1-c1cnccn1 | · | 5 | · | · | -0.2
COc1ccc(C(=O)Cn2c(NCCCl)nc3ccccc32)cc1 | · | 2 | · | · | 0.3
CCC(=O)Nc1cc(OC)cc(OC)c1 | -7 | -8 | · | 1% | -0.6
COc1ccc(Cl)cc1C(=O)NNC(=O)c1csc(N2CCOCC2)n1 | · | 2 | · | · | -1.7
COc1ccc(OCCCNCCc2ccccc2)cc1 | -2 | 8 | · | 7% | 1.5

The list is partial. The share of hits here may be higher or lower than overall.
